HCMV NEC inh = inhibitors of HCMV UL50-UL53 interaction, biochemical, HTRF | HCMV UL50-UL53 nuclear egress complex (human cytomegalovirus) | normalized percent inhibition | inhibition, % (no concentration beside the values) | 0.15% of 190,000 active | AID 1918969, 2023;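 active = both replicates at 50% or more, plus weaker picks with an unusually low signal ratio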;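 note: stock transfer was 100 nL into about 20 µL; 0% = negative control wells and 100% = wells with untagged competitor protein; inactives centre near -12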
Sa growth inh = S. aureus growth inhibition at 42 and 30 °C, primary screen, LtaS inhibitor project, RN4220, two temperatures; relative growth, % (test concentration not listed); AID 720641, 2013; 0.53% of 170,000 active; OD600, 20 h, 42 °C; stronger effect = lower value;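 active = growth at 42 °C up to 50% and 20 or more points under that at 30 °C, or under 10% at both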;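 note: 300 nL library stock went into each well; scaled to the means of positive and negative controls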
GIV-Gai inh = inhibitors of GIV peptide binding to Galpha-i3, primary screen, biochemical, fluorescence polarization, FITC-GIV GBA peptide, rat Galphai3; 0.42% of 210,000 active; percent of control (FP), % (test concentration not listed); 90 min; stronger effect = lower value; scaled: aluminum fluoride 0%, vehicle 100%;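 active = replicate mean at 85% of control or lower, very high polarization wells dropped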;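 note: wells of about 15 µL received 100 nL stock; the first replicate is given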
Target sequence (P08753 whole entry, looked up): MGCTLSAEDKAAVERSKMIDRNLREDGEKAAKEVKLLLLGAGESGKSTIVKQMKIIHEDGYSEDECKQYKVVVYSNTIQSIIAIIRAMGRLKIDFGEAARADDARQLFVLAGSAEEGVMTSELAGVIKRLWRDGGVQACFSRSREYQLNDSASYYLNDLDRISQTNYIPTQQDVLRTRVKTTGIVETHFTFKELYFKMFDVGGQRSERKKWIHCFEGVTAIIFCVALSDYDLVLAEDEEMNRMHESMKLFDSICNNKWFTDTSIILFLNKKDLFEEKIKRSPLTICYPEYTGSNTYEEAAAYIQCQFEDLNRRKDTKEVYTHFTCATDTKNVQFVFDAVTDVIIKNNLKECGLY
Sa growth inh second temp = recorded beside Sa growth inh, whose call it bears; relative growth, %; measured here: growth at 30 °C;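 optical density after 20 h as mean of two plates; 100% = untreated growth and lower means inhibition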
* marks the source's active call; other numbers are inactive results; . = no result given; & = joins results of further samples. Outcome played no part in choosing rows; any-hit rate near 0.79%.

molecule	HCMV NEC inh	Sa growth inh	Sa growth inh second temp	GIV-Gai inh
COc1ccc(N2C(=O)C3N=NN(CC(=O)Nc4ccccc4Br)C3C2=O)cc1OC (stereo unspecified)	-21	.	.	97
C(=C\c1ccccc1)/CSc1ncnc2ccccc12	.	89	97	106
CCOC(=O)c1cc(C)nn1C(=O)c1c(F)cccc1Cl	.	95	87	100
Cc1cc(C)nc(SCC(=O)N/N=C2\CCc3ccccc32)n1	-38	69	88	.
COc1ccc(OCC(=O)NCCc2ccccc2)cc1	11	106	100	101
CCc1c(C)sc(NC(=O)c2ccc(Cn3nc(C)c(Cl)c3C)o2)c1C(N)=O	-2	85	75	100
COCC(=O)N(C)c1nnc(-c2ccc(OC)cc2)s1	-13	112	85	101
COc1ccc(CCN2C(=O)CSC2c2ccc(Cl)c(Cl)c2)cc1OC (stereo unspecified)	-15	.	.	97
O=C1C(Cc2ccc(F)cc2)S/C(=N/N=C/c2cccnc2)N1Cc1ccco1 (stereo unspecified)	-24	109	89	96
Cc1cccc(CCNC(=O)c2ccc3c(=O)n(Cc4ccc5c(c4)OCO5)c(=O)[nH]c3c2)c1	-8	100	90	106
COc1ccc(-c2nn(-c3ccccc3)cc2C2CC(c3ccccc3)=NN2S(C)(=O)=O)cc1 (stereo unspecified)	-14	.	.	145
CN(Cc1ccccc1)C(=O)COC(=O)Cc1c(Cl)cccc1Cl	-8	103	87	.
Clc1ccc(CN2CCCNCC2)c(Cl)c1	.	109	87	104
COC(=O)C(CO)NS(=O)(=O)c1ccc(C)cc1 (stereo unspecified)	-15	96	91	98
Cc1ccc(-c2noc(-c3cn(Cc4ccc(NS(=O)(=O)c5cc(C)ccc5C)cc4)cn3)n2)cc1	-38	.	.	107
Cc1ccc(C)c(Cn2c(=O)n(Cc3ccc(C(=O)NC4CCN(Cc5ccccc5)CC4)cc3)c(=O)c3ccccc32)c1	4	101	93	104

The closing four entries of the section before lead into the next.
molecule	HCMV NEC inh	Sa growth inh	Sa growth inh second temp	GIV-Gai inh
Clc1ccc(CN2CCCNCC2)c(Cl)c1	.	109	87	104
COC(=O)C(CO)NS(=O)(=O)c1ccc(C)cc1 (stereo unspecified)	-15	96	91	98
Cc1ccc(-c2noc(-c3cn(Cc4ccc(NS(=O)(=O)c5cc(C)ccc5C)cc4)cn3)n2)cc1	-38	.	.	107
Cc1ccc(C)c(Cn2c(=O)n(Cc3ccc(C(=O)NC4CCN(Cc5ccccc5)CC4)cc3)c(=O)c3ccccc32)c1	4	101	93	104
CCOC(=O)CC1=Nn2c(nnc2-c2ccc(Cl)cc2)SC1	-13	82	83	.
CCC(C(=O)NCc1ccc(F)cc1)N1CCN(Cc2ccc(F)cc2)C(=O)C1=O (stereo unspecified)	-18	.	.	104
CCOc1ccc(C(=O)NCC(=O)N2CCC(C)CC2)cc1OCC	-29	83	91	.
CCOc1ccc(CCNC(=O)Cn2ncc3ccccc32)cc1OCC	4&-4	101	87	105&112
CCN(CC)c1ccc(C(=O)O)cc1	.	88	87	104
CC(C)(C)NC(=O)c1ccc(C(=O)O)s1	-30	128	73	.
O=C(Nc1ccc2c(c1)OCO2)C12CC3CC(CC(C3)C1)C2	-8	108	94	.
CCCNC(=O)c1ccc(NC(C)=O)cc1	-2	106	88	.

Sorted by the number under Sa growth inh second temp (largest number first): four of the compounds above.
SMILES,Sa growth inh second temp,GIV-Gai inh
O=C(Nc1ccc2c(c1)OCO2)C12CC3CC(CC(C3)C1)C2,94,.
CCOc1ccc(CCNC(=O)Cn2ncc3ccccc32)cc1OCC,87,105&112
CCOC(=O)CC1=Nn2c(nnc2-c2ccc(Cl)cc2)SC1,83,.
CC(C)(C)NC(=O)c1ccc(C(=O)O)s1,73,.

(cont.)
molecule	HCMV NEC inh	Sa growth inh	Sa growth inh second temp	GIV-Gai inh
COC(=O)CC1SC(=O)NC1=Nc1ccc(OC)cc1 (stereo unspecified)	11	108	91	105
COc1cc(/C=c2\sc3nc(-c4oc5ccccc5c4C)nn3c2=O)cc(OC)c1OC	-31	91	84	105
CC1(C)OC2C(CS(C)(=O)=O)OC(n3ncc(=O)[nH]c3=O)C2O1 (stereo unspecified)	-22	85	85	100
Cn1c(SCC(=O)Nc2ccccc2)nnc1-c1ccco1	-6	100	85	102
O=C1c2cccnc2C(=O)N1CCc1ccc(S(=O)(=O)NCCc2ccccc2)cc1	.	98	93	100
O=C(CCc1nc(-c2ccccc2)no1)Nc1cccnc1	-16&-6	88	85	97&116
O=C(O)CSCC(=O)N1CCN(c2ccc(C(F)(F)F)cn2)CC1	-16	98	76	97
COc1ccc(-c2cc3c(n2Cc2ccc(F)cc2)CC(C)(C)CC3=O)cc1	.	64	61	108
CCOC(=O)c1nc2ccccc2nc1NCc1ccccn1	-15	.	.	109
NNC(=O)Cc1csc(-c2ccc(F)cc2)n1	-34	111	87	.
Cc1nc2ccc(NC(=O)C3=CC=CN4CCS(=O)(=O)N=C34)cc2s1	-5	103	104	.
O=C(O/N=C1\CCCc2oc3c(c21)CCCC3)c1ccc(F)cc1	-23	97	90	105
O=C1c2ccccc2C(Nc2cccnc2)N1Cc1ccccc1 (stereo unspecified)	-33	87	79	102
CCOC(=O)CCc1nn(C)c(=O)c2ccccc12	9	102	106	100
Cn1c(-c2ccc(Cl)cc2)cs/c1=N\C(=S)NCCc1ccccc1	-2	104	91	105
CO/N=C1/CC(C)(C)Cc2c(C(=O)O)sc(SC)c21	-59	98	85	104
CCOc1cc(C(=O)Nc2ccc(-c3nc4cc(Cl)ccc4o3)cc2)cc(OCC)c1OCC	-33	95	93	102
CC(Sc1nc2ccc(Br)cc2[nH]1)C(=O)O (stereo unspecified)	.	92	83	99
O=C(Nc1ccccc1NC(=O)c1ccc(Br)o1)c1ccc(Br)o1	0	104	88	.
CC(C(=O)NCc1ccc2c(c1)OCO2)n1ncc(Cl)c(Cl)c1=O (stereo unspecified)	-8	91	95	.
COc1ccc(OC)c(CNC(=O)c2ccc3noc(-c4ccc(Cl)cc4)c3c2)c1	-12	.	.	98
COc1ccc(C(=O)OCC(=O)C(C)(C)C)c(OC)c1OC	7	91	94	.
Cc1ccc(Nc2c(-c3ccc(C)cc3)nc3ccc(C)cn23)cc1	26	100	108	103
CCCCn1c(=N)n(CC(N)=O)c2ccccc21	4	117	90	104
COc1cc(NC(=O)CC2C(=O)N(c3ccc(Cl)cc3)C(=O)N2Cc2cccs2)cc(OC)c1 (stereo unspecified)	.	122	79	101
COC(=O)CSc1nnnn1-c1ccccc1	-10	76	91	.
CCCCC(=O)Nc1ccc(-c2csc(-c3ccccc3)n2)cc1	-4	93	86	.
Cc1ccc(NC(=O)COc2cc(C)c3c(-c4cccc(C)c4)nn(-c4ccccc4)c3n2)cc1	6	.	.	106
CC1=C(C(=O)c2ccccc2)C(c2ccc(C)o2)n2c(nc3ccccc32)N1 (stereo unspecified)	-12	100	78	.
O=C(CSc1nc2ccccc2[nH]1)NCc1ccccc1	-4	106	96	.
O=C1COc2cc(S(=O)(=O)CCC(=O)N3CCN(c4ccccc4)CC3)c(Cl)cc2N1	.	87	83	102
Cc1ccc(CNCC(O)COCC2CCCO2)n1C (stereo unspecified)	-22	73	65	.
O=S(=O)(c1ccc(Br)cc1)c1nnn2c1nc(Nc1cccc(C(F)(F)F)c1)c1sccc12	.	82	91	99
COc1ccc(C(=O)COC(=O)c2ccc(N3C(=O)C4CC=CC(C)C4C3=O)cc2)cc1 (stereo unspecified)	-16	.	.	98
O=C(NC1CC1)c1ccc(NC(=O)c2nsc3ccccc23)cc1	12	.	.	107
COc1ccc(/C=N/NC(=O)Cn2cncn2)cc1	-53	68	86	.
O=C1c2ccccc2C(=O)N1CCSC1=NN2CCS(=O)(=O)N=C2S1	-31	98	97	.
Cc1ccccc1NC(=O)N(C)C1CCN(C)CC1	9	102	107	112
Cc1cc(C)c(-c2n[nH]c3c2C(c2ccccc2F)N(Cc2ccco2)C3=O)c(O)c1 (stereo unspecified)	20	117	82	102
O=S(=O)(CCS(=O)(=O)c1cccs1)c1ccccc1	2	94	96	112
O=C(NCc1cccnc1)c1ccc(CN2CC(=O)N3CSCC3C2=O)cc1 (stereo unspecified)	3	.	.	104
CN1CCN(C(=O)CCN2C(=O)/C(=C\c3ccc(Cl)cc3Cl)SC2=S)CC1	-50	.	.	104
COC(=O)c1ccc2ccccc2n1	-61	105	92	.
Cc1ccc2cnn(CCCC(=O)NCc3ccccc3)c2c1	-1	109	92	108&105
COc1cc(NC(=O)c2ccc3c(-n4ccnc4)c4c(nc3c2)CCCC4)cc(OC)c1OC	.	119	88	97
O=C(Nc1cccnc1Cl)c1cc(-c2cccc(Cl)c2)on1	-4	108	91	101
CC(C)(C)C(=O)C[n+]1ccc(/C=N/O)cc1	-90	94	85	106
CCOC(=O)c1c(C)oc2c1c(/C=N/c1cccc(C)n1)c(O)c1ccccc12	.	101	98	253
OC(CN1CCN(Cc2ccccc2)CC1)c1ccc2cc[nH]c2c1 (stereo unspecified)	-13	.	.	102
CC1(CC(=O)N/N=C/c2ccc(Br)o2)SCCS1	-30	91	97	.
CC(=O)OCCOCn1cc(I)c(=O)[nH]c1=O	-13	100	90	102
CC1C(=O)Nc2ccc(S(=O)(=O)Nc3ccccc3Br)cc2NC1=O (stereo unspecified)	2	100	90	105
CCC(C)(C)C1CCC(=NNC(=O)c2ccoc2C)CC1 (stereo unspecified)	-26	77	91	.
Cc1sc2ncn(CC(=O)N3CCN(c4cccc(Cl)c4)CC3)c(=O)c2c1S(=O)(=O)N1CCN(c2ncccn2)CC1	-4	106	99	109
O=C(CSc1ccc2nnc(-c3ccncc3)n2n1)N1CCCC1	-46	102	86	102
COc1ccccc1C(=O)Nc1ccc2oc(-c3cccc4c(Br)cccc34)nc2c1	-41	82	73	102

(cont.)
molecule	HCMV NEC inh	Sa growth inh	Sa growth inh second temp	GIV-Gai inh
CCc1ccc(Nc2nc3c(S(=O)(=O)c4cccc(Cl)c4)nnn3c3ccsc23)cc1	.	99	99	110
Cc1cc(Cl)ccc1NC(=O)CCCn1nc(C)c2nn(-c3ccccc3)c(-n3cccc3)c2c1=O	-29	.	.	102
CC(=O)Nc1cccc(NC(=O)Nc2ccccc2)c1	-30	94	87	.
CCN(CC(=O)NCc1cccs1)C(=O)c1oc2ccc(OC)cc2c1C	21	137	113	.
O=C(CSc1nc2ccccc2s1)OCN1C(=O)c2ccccc2C1=O	.	100	90	99
Cc1ccccc1Cn1c(=O)n(CC2CCC(C(=O)N3CCC(C)CC3)CC2)c(=O)c2sccc21 (stereo unspecified)	.	99	90	96
O=C(CSc1nc(-c2ccccc2)cn1-c1ccccc1F)Nc1ccc(F)cc1	.	85	84	104
N#Cc1c(NCc2ccccc2)ccnc1Cl	-13	104	109	102
O=C(CC(c1ccccc1)c1cc(Br)ccc1O)NCC1(c2ccccc2)CCCC1 (stereo unspecified)	8	115	93	105
O=C(NCc1ccncc1)c1cccc(COc2ccc3c(c2)CCC3)c1	2	101	70	102
CCOC(=O)c1cncc(C#CC(C)(C)O)c1	-21	80	85	105
COc1ccccc1OCCSc1nc2ccccc2n1CCC(=O)O	-7	.	.	100
c1ccc(-n2nnnc2Sc2nnc(C3COc4ccccc4O3)n2-c2ccccc2)cc1 (stereo unspecified)	-32	95	85	.
O=c1[nH]c(CN2CCCC2)nc2scc(-c3ccccc3)c12	0	63	23	.
CCCCNc1ncnc2c1[nH]c1ccc(C)cc12	-7	90	84	108
NC(=O)c1nnn(Cc2ccccc2)c1N	-10	92	111	.
C#CCN1C(=O)S/C(=C/c2cc(OC)c(OCC(=O)O)cc2Br)C1=O	-64	108	95	96
O=C(O)C(c1ccccc1)N1CCCCC1 (stereo unspecified)	-6	106	92	.
Cc1[nH]c(C(=O)N2CCC(CC(=O)NCc3ccc4c(c3)OCO4)CC2)c(C)c1C	1	.	.	101
Cc1ccc(-c2cc(NC(=O)C(C)Oc3ccccc3F)on2)cc1 (stereo unspecified)	-6	92	76	97
CN1c2ccccc2C(=O)/C(=C/N=S(C)(=O)c2ccccc2)S1(=O)=O (stereo unspecified)	-1	98	91	105
O=C(NCc1cn2ccsc2n1)C(F)(F)F	-12	110	89	.
Cc1ccc(-c2cc3c(n2Cc2cccs2)CC(C)(C)CC3=O)cc1	3	66	30	105
COc1ccc(CC(=O)NCc2ccc3c(c2)CCN3C(=O)c2ccc(Cl)cc2)cc1OC	.	123	77	105
OC(CSc1ccccc1)CN1CCC(Nc2nccc(C(F)(F)F)n2)CC1 (stereo unspecified)	.	131	90	102
CCOC(=O)c1ccc2[nH]c3c(c2c1)CCCCC3=O	-25	85	99	98

Compound activity from PubChem.
